Compound activity deposited in PubChem BioAssay by Johns Hopkins Ion Channel Center.
KCNQ2 enhance: enhances the rat KCNQ2 potassium channel; O88943; CHO-K1 KCNQ2, FluxOR thallium flux fluorescence; active compounds read high; B-score at 10 µM; hit rate 0.54% among 310,000;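 active means fluorescence ratio B-score at least 3 SD of library B-scores, with initial fluorescence B-score within 3 SD, cut at about 5.3 in these data; same plate scores as AID 2156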;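 further: B-score of peak minus minimum over baseline fluorescence ratio after K+ and Tl+ stimulus; positive B-score means potentiation of KCNQ2 with more thallium influx and brighter signal; only the inactives scoring about 0 or higher are listed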
Target sequence (O88943 whole entry, looked up): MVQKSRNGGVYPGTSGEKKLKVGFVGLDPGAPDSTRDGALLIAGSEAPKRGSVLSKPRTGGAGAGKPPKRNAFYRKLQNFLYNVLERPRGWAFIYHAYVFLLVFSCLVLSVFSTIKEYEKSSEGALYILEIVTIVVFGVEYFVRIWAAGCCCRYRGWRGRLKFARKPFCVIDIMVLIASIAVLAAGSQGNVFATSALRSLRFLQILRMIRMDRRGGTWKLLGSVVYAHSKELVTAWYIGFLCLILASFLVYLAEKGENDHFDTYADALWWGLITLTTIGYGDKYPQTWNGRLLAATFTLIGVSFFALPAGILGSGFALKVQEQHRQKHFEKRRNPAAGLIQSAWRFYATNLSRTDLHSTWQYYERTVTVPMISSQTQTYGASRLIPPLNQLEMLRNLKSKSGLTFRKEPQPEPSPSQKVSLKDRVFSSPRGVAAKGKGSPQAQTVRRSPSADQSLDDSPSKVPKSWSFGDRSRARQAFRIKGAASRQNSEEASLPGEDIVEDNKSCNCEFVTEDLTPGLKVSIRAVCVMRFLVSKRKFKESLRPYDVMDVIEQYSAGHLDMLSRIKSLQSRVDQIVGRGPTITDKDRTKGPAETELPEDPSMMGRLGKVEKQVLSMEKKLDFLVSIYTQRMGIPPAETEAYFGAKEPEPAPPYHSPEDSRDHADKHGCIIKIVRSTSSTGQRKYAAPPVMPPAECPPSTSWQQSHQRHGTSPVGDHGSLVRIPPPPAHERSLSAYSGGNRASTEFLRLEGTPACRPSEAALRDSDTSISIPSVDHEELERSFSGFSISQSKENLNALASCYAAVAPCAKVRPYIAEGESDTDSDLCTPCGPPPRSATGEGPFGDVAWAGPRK
KCNQ2 enhance baseline: further read-out of KCNQ2 enhance, marked with its call; B-score; compound at 10 µM; measured here: initial fluorescence intensity artifact check;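 brightness before thallium and not channel activity; 0 = typical well and far values either way flag optical interference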
An asterisk follows results filed as active. An excerpt; rates above refer to the full screens.

SMILES	KCNQ2 enhance	KCNQ2 enhance baseline
Cc1ccc(C)c(N(C(=O)Cn2nnc3ccccc32)C(C(=O)NCc2ccco2)c2ccncc2)c1 (stereo not drawn)	2.71	0.27
S=c1[nH]c2cc(Cl)c3cccnc3c2o1	1.02	-1.21
OCOCCCn1c(C2CCCN2c2nc(-c3ccc(F)cc3)cs2)nc2cc(Cl)c(N3CCCCC3)cc21 (stereo not drawn)	6.89*	-1*
CC(=O)Nc1ccc(S(=O)(=O)NNC(=O)c2ccc(S(=O)(=O)N3CCCCC3)cc2)cc1	0.15	0.02
COc1ccccc1NC(=O)C(=O)N(c1cccnc1)C(C(=O)NC(C)(C)C)c1ccccc1 (stereo not drawn)	0.95	-0.11
CSc1nc(/C=C2\C=Nc3ccccc32)c(O)n1C	1.42	0.11
CCSc1nnc(NC(=O)C2CC(=O)N(Cc3ccccc3)C2)s1 (stereo not drawn)	0.12	-0.28
CCOC(=O)N1CCN(Cc2nnc(-c3cccc(Br)c3)o2)CC1	0.82	0.02
Cc1occc1C(=O)N/N=C/c1cccnc1	0.97	0.02
O=S(=O)(Nc1cccc(-n2cnnn2)c1)c1cccc(Cl)c1	0.07	2.16
Cc1cc(N2CCCC2)nc(N2C3CCC2CC(O)(c2ccc(F)cc2)C3)n1 (stereo not drawn)	0.05	0.41
O=C1Nc2ccccc2C12OCC(COc1ccc(Cl)cc1)O2 (stereo not drawn)	0.47	-1.96
COCCCNc1nc2c(c(=O)[nH]c(=O)n2C)n1CC(O)COc1ccccc1C (stereo not drawn)	1.07	-0.93
CCn1ccnc1CN(C)C(=O)C1CCC(=O)N(Cc2cccc(C(F)(F)F)c2)C1 (stereo not drawn)	0.81	0.2
Cc1cc([N+](=O)[O-])nn1CC(=O)Nc1nc2ccccc2s1	3.16	3.3
O=[N+]([O-])c1cccc(S(=O)(=O)N2CCC(c3nc(-c4ccncc4)no3)CC2)c1	0.57	0.2
CN(c1cccc(NC(=O)CN(c2ccc(C34CC5CC(CC(C5)C3)C4)cc2)S(C)(=O)=O)c1)S(C)(=O)=O	0.56	-2.14
CCCSC1=C(C#N)C(c2ccc(OC)cc2)C2=C(CC(C)(C)CC2=O)N1 (stereo not drawn)	2.86	-0.73
C=CCNc1nnc(SCC(=O)N2CCC(C(N)=O)CC2)s1	1.32	0.38
Cc1sc2ncn(CC(=O)NCCCOC(C)C)c(=O)c2c1S(=O)(=O)N1CCN(c2ncccn2)CC1	0.02	0.18
NS(=O)(=O)c1ccc(N/N=C/c2cn(-c3ccccc3)nc2-c2ccccc2)c([N+](=O)[O-])c1	1.04	0.56
CCc1nc(C)cn1S(=O)(=O)c1cc(Cl)c(OC)cc1Cl	0.58	-0.53
COc1ccc(C(=O)Oc2c(C)occc2=O)cc1OC	1.36	-0.25
CCOC(=O)CCNC(C)C1COc2ccccc2O1 (stereo not drawn)	0.81	0.1
COc1cccc2c1OCC1COc3c(c(=O)n(C)c(=O)n3C)C21 (stereo not drawn)	0.57	-0.12

Quoted from the results shown for reference:
SMILES	KCNQ2 enhance	KCNQ2 enhance baseline
Cc1ccc(C)c(N(C(=O)Cn2nnc3ccccc32)C(C(=O)NCc2ccco2)c2ccncc2)c1 (stereo not drawn)	2.71	0.27
S=c1[nH]c2cc(Cl)c3cccnc3c2o1	1.02	-1.21

Later entries:
SMILES	KCNQ2 enhance	KCNQ2 enhance baseline
CCCc1nc(SCC(=O)Nc2ccc(N3CCOCC3)cc2)c2ccccc2n1	0.85	-1.62
CC(=O)Nc1ccc(C(=O)NCC(=O)OCc2ccccc2F)cc1	2.21	-0.74
Cc1ccnc(NC(=O)CS(=O)(=O)c2ccccc2)c1	0.91	-0.13
O=C(NC(=O)c1ccccc1)Nc1ccccc1	0.8	-0.04
Cc1ccc(/C=N/NC(=O)c2nnn(-c3nonc3N)c2CSc2ccc(Cl)cc2)cc1	1.24	0.79
Nc1nc(CCOc2ccc(F)cc2)cs1	0.99	-0.99
CCCCn1c(N)c(-c2nc3ccccc3o2)c2c([N+](=O)[O-])nn(CC)c(=O)c21	1.23	0
CCOc1ccc(NC(=O)CN(C)C(=O)c2ccc(COc3ccccc3)o2)cc1OCC	0.8	-0.67
O=C(O)CNC(=O)c1ccc(NC(=O)/C(=C/c2cccc([N+](=O)[O-])c2)NC(=O)c2ccco2)cc1	1.61	0.77
Cc1cc(NC(=O)CCC(=O)N(Cc2ccccc2)C(C(=O)NC2CCCC2)c2ccco2)no1 (stereo not drawn)	0.38	-0.86
CCOc1ccccc1NS(=O)(=O)c1ccc2c(c1)N(C)CCO2	0.84	0.34
Cc1ccccc1SCC(=O)OCC(=O)N(C)c1c(N)n(Cc2ccccc2)c(=O)[nH]c1=O	0.99	-1.01
CC1CCC(NC(=S)NCCN(C)C)CC1 (stereo not drawn)	1.74	-1.1
Cc1ccc(CNC(=O)CS(=O)(=O)CC(=O)O)cc1	0.79	0.04
CCc1cccc2c(C(=O)COC(=O)c3nn(C)c(=O)c4ccccc34)c[nH]c12	2.28	-2.65
CCOC(=O)CSc1nc2ccccc2n2c(C)nnc12	1.74	2.38
CCc1cccc2c(C(=O)COC(=O)c3c(C)noc3C)c[nH]c12	0.99	-0.13
Cc1ccc(N2Cc3ccccc3C2=O)cc1	0.22	-0.09
Cc1nc(SCC(=O)N(C)C2CCCCC2)[nH]c(=O)c1Cc1ccccc1	0.32	-0.04
CNS(=O)(=O)c1cccc(C(=O)OCC(=O)Nc2ccc(-c3nc4ccc(C)cc4s3)cc2)c1	0.37	2.36
O=C(NC1CCCC1)C(c1ccc(F)cc1)N(C(=O)c1csnn1)c1ccccc1F (stereo not drawn)	1.06	1.31
COC(=O)c1c(C(=O)OC)c(C)n(Cc2ccco2)c1C	2.15	-0.14
O=C1c2ccccc2C(=O)C1C1=Nc2ccccc2NC(c2ccccc2)C1 (stereo not drawn)	0.08	0.02
CCOc1ccc(C(=O)N(C)C2CCS(=O)(=O)C2)cc1 (stereo not drawn)	0.19	0.04
CCN(CCn1cccn1)Cc1nc(-c2ccccc2)no1	0.98	-0.89

Looked up above.
`CCOC(=O)CSc1nc2ccccc2n2c(C)nnc12` @ KCNQ2 enhance baseline = 2.38
`Cc1cc(NC(=O)CCC(=O)N(Cc2ccccc2)C(C(=O)NC2CCCC2)c2ccco2)no1` (stereo not drawn) @ KCNQ2 enhance = 0.38
`O=C(NC(=O)c1ccccc1)Nc1ccccc1` @ KCNQ2 enhance baseline = -0.04
`Cc1occc1C(=O)N/N=C/c1cccnc1` @ KCNQ2 enhance = 0.97
`O=[N+]([O-])c1cccc(S(=O)(=O)N2CCC(c3nc(-c4ccncc4)no3)CC2)c1` @ KCNQ2 enhance = 0.57

Molecules shown so far with a nitro group on carbon (5):
SMILES	KCNQ2 enhance	KCNQ2 enhance baseline
Cc1cc([N+](=O)[O-])nn1CC(=O)Nc1nc2ccccc2s1	3.16	3.3
O=[N+]([O-])c1cccc(S(=O)(=O)N2CCC(c3nc(-c4ccncc4)no3)CC2)c1	0.57	0.2
NS(=O)(=O)c1ccc(N/N=C/c2cn(-c3ccccc3)nc2-c2ccccc2)c([N+](=O)[O-])c1	1.04	0.56
CCCCn1c(N)c(-c2nc3ccccc3o2)c2c([N+](=O)[O-])nn(CC)c(=O)c21	1.23	0
O=C(O)CNC(=O)c1ccc(NC(=O)/C(=C/c2cccc([N+](=O)[O-])c2)NC(=O)c2ccco2)cc1	1.61	0.77

(more compounds)
SMILES	KCNQ2 enhance	KCNQ2 enhance baseline
CC1=C(C(=O)OC2CCCCC2)C(c2cccs2)n2c(nc3ccccc32)N1 (stereo not drawn)	1.1	0.15
Cc1ccc(C)c(N2CCN(c3ccncc3N)CC2)c1	0.28	3.83
CC(=O)Nc1ccc(Nc2c3ccccc3nc3ccccc23)cc1	0.82	0.09
COCCCNc1nc2ccccc2nc1NS(=O)(=O)c1cccc(C)c1	0.48	0.63
CCN(CC)c1ccc(CNc2ccc(Br)cn2)cc1	0.85	-0.68
CCCc1nnc(NS(=O)(=O)c2ccccc2)s1	0.02	-0.49
CCOC(=O)c1cccc(C(=O)OCC)n1	1.76	0.56
O=C(Nc1ncc2c(n1)-c1ccccc1CC2)c1ccccc1	8.52*	-1.02*
Cc1cc(C(=O)N/N=C/c2ccc(N(C)C)o2)cs1	1.1	1.23
O=C(Nc1nnc(CCN2CCOCC2)s1)c1ccccc1	0.22	1.69
CCOC(=O)c1c(C)nc2ccccc2c1C	1.87	-0.95
COc1ccc(C2COc3cc(O)ccc3C2)c(OC)c1O (stereo not drawn)	0.92	-0.96
O=C(Nc1cccc([N+](=O)[O-])c1)c1ccc2nsnc2c1	0.17	-0.65
O=C(O)C1CCCN1S(=O)(=O)c1ccc2ccccc2c1 (stereo not drawn)	0.53	-0.36
CCOc1ccc(NC(=O)c2ccc(Cn3nc(C)cc3C)o2)cc1	1.62	-1.67
COc1ccccc1/C=N/NC(=O)c1cc2c(OC)c(OC)ccc2[nH]1	0.1	0.64
COC(=O)/C=C1\SC(=NC(=O)c2cccc([N+](=O)[O-])c2)NC1=O	1.79	-0.63
Clc1cccc(/C=N/Nc2ncnc3ccccc23)c1	0.17	1.33
Cc1cccc(NC(=S)NCc2ccco2)n1	1.17	-0.99
COc1ccc(C(C(=O)NC2CCCCC2)N(Cc2ccco2)C(=O)c2ccccn2)c(OC)c1 (stereo not drawn)	1.36	0.01
Cc1onc(-c2ccccc2)c1C(=O)N1CCN(CCc2ccccc2)CC1	0.03	0.02
CC(C)C(NC(=O)C1CCCCC1)C(=O)Nc1ccccn1 (stereo not drawn)	1.62	-2.07
COc1ccccc1NC(=O)c1cc(-c2ccc(OC)c(OC)c2)nc2ccccc12	0.92	0.66
Cc1ccc(C(=O)OCc2nnc(-c3ccccc3)o2)cc1S(=O)(=O)N1CCOCC1	0.01	0.47
COc1ccc(NC(=O)CSc2cc(C(=O)c3nccn3C)c3ccccc3n2)cc1	0.85	-0.69
The list continues:
SMILES	KCNQ2 enhance	KCNQ2 enhance baseline
CC(=O)Nc1ccc(NS(=O)(=O)c2ccc3ccccc3c2)cc1	1.68	-0.72
O=C(NNS(=O)(=O)c1ccc(F)cc1)C1CCCCC1	1.59	0.53
Cc1ccnc(NS(=O)(=O)c2ccc(NC(=O)c3ccccc3F)cc2)n1	0.08	0.39
CC(C)(C)C(=O)N1N=C(c2cccc(NS(C)(=O)=O)c2)CC1c1cccs1 (stereo not drawn)	0.63	-1.3
Cc1ccc(-c2c(C(=O)N/N=C/c3ccsc3)nnn2-c2nonc2N)cc1	0.7	0.55
Nc1ccc(S(=O)(=O)NCC(=O)OCCOc2ccccc2)cc1[N+](=O)[O-]	2.29	-1.16
Cc1[nH]c2ccccc2c1/C=N/NC(=O)c1cccc([N+](=O)[O-])c1	0.91	0.51
Cc1ccc(NC(=O)c2ccc(C)c(NC3=NC4CS(=O)(=O)CC4S3)c2)cc1C (stereo not drawn)	1.96	0.49
Cc1cc(=O)[nH]c(Nc2cccc(Br)c2)n1	0.06	0.56
CCn1c(SCCN2CCOCC2)nc2c1c(=O)n(C)c(=O)n2C	0.28	-0.25
O=C(CCS(=O)(=O)c1ccc(Cl)cc1)NCCN1C(=O)S/C(=C\c2ccccc2F)C1=O	0.16	-0.55
CC1(C)CC(=O)C2=C(C1)OC(N)=C(C#N)C2c1ccc[nH]1 (stereo not drawn)	0.12	0.59
NS(=O)(=O)c1ccc(-c2ccc(/C=C3\NC(=S)NC3=O)o2)cc1	0.15	0.79
COc1cc(NC(=O)C2CC(c3ccccc3Cl)=NO2)cc(OC)c1OC (stereo not drawn)	1.73	-1.35
CS(=O)(=O)N1CCC(C(=O)NCc2ccccc2)CC1	0.55	0.99
O=C(CCS(=O)(=O)c1cccc2nsnc12)N1CCN(Cc2ccc3c(c2)OCO3)CC1	0.32	-0.98
Cc1ccccc1NC(=S)NCC1CCC(CNC(=S)Nc2ccccc2C)CC1 (stereo not drawn)	0.58	-0.23
CN(C)c1ccc(NC(=O)c2cccc(N3C(=O)C4C5C=CC(C5)C4C3=O)c2)cc1 (stereo not drawn)	0.1	0.67
C[C@H](NC(=O)[C@H](Cc1ccccc1)n1c(=O)[nH]c2ccccc2c1=O)C(=O)N1CCC(C(=O)O)CC1	0.85	-1.38
CC(=O)N1N=C(c2ccco2)CC1c1cc2ccc(C)cc2nc1Cl (stereo not drawn)	1.56	1.06
Cc1cc(Br)ccc1NC(=O)CN1C(=S)NC(C)(C)CC1C (stereo not drawn)	1.18	1.71
C=CCSC(CC)(CC)C(N)=O	0.87	-0.56
O=[N+]([O-])c1cccc(NNS(=O)(=O)c2ccccc2F)c1	1	0.5
N#C/C(=N/Nc1ccc(S(=O)(=O)N2CCOCC2)cc1)C(N)=O	0.24	-0.9
O=c1cc(-c2ccc(Cl)cc2)nc(N2CCN(c3ccccc3)CC2)[nH]1	0.7	-0.23
Other structures.
SMILES	KCNQ2 enhance	KCNQ2 enhance baseline
CCOC(=O)C1CCCN(Cc2ccc(OCC)cc2)C1 (stereo not drawn)	0.64	0
CCn1c(N)nc2ccccc21	0.85	1.96
COc1ccc(OC)c(Nc2nc(N)nc(-c3cc4ccccc4o3)n2)c1	0.18	-0.79
C/C(=N\NC(=O)Cc1ccc(Cl)c(Cl)c1)c1cccnc1	1.06	0.47
COc1cc(OC)cc(-c2oc3cccnc3c2C#CCCO)c1	0.03	1.2
COc1ccc(-n2c3c(cc(C(=O)NCC(=O)c4ccccc4)c2=O)C(=O)CC(C)(C)C3)cc1	0.58	1.48
Cc1ccc(OCC(O)Cn2c(N3CCCCC3)nc3c2c(=O)[nH]c(=O)n3C)cc1 (stereo not drawn)	2.53	-0.76
O=C(COc1ccc(NC(=O)c2ccccc2[N+](=O)[O-])cc1)c1ccc(F)cc1	0.08	-0.09
CC(=O)n1cc(-c2ccncc2)c2ccccc21	0.27	0.76
Cc1cc(NC(=O)CSc2nc3c(sc4ccccc43)c(=O)n2CCCN2CCOCC2)n[nH]1	0.07	0.15
CS(=O)c1ccccc1-c1nc(-c2ccc(Cl)cc2)no1 (stereo not drawn)	0.9	-0.47
CCN(CC)c1ccc(C2=NNC(=O)CC2C)cc1[N+](=O)[O-] (stereo not drawn)	0.06	0.3
CCN(CC)c1cc(NCCO)c([N+](=O)[O-])c2nonc12	0.93	2.89
